RE007 growth inh: less growth of the S. pombe RE007 Vpr strain | S. pombe RE007 Vpr strain, BacTiter-Glo ATP luminescence, 24 h; control for the full effect not named in the record | Potency, µM (series often up to 92.2 µM), for the others: top-dose activity change, negative = less growth | 360,000 compounds, 0.21% hits | AID 651644; active = well fitted falling curve with a large enough effect; inconclusive = small, poorly fitted or top-dose-only effect; inactive = no such curve, though single readings can be large or run the other way;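 also: % is scaled to controls: 0 for no effect and ±100 for the full control effect; nearly all actives have a fitted effect of over 50% in size; the assay follows cell death caused by Vpr and the record does not say whether a fall means rescue or toxicity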
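Fission yeast RE007 carrying one integrated HIV-1 vpr copy, seeded at OD 0.01 in PMG+AL medium with 23 nL pinned compound. Grown 24 h at 30 degrees; viability read by BacTiter-Glo luminescence after 5 min.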
SARS PLP yeast: blocks SARS-CoV papain-like protease in a yeast assay; S. cerevisiae expressing SARS-CoV PLpro, growth rescue; control for the full effect not named in the record; Potency, µM (highest dose often 32.9 µM), without a hit: at the highest dose activity, positive = growth rescue; 330,000 compounds, 0.19% hits; AID 485353; active means well fitted rising curve with a large enough effect; inconclusive means small, poorly fitted or top-dose-only effect; inactive means no such curve, though single readings can be large or run the other way; also: 0% is about no effect; nearly all actives have a fitted effect of over 55% in size; growth read by luminescence after 48 h
NS1 function inh: inhibitors of influenza NS1 protein function | S. cerevisiae slowed by influenza A NS1, growth recovery by OD600 | Potency, µM (series often up to 46.1 µM), without a hit: at the top dose activity, positive = more growth | 270,000 compounds, 0.4% hits | AID 2326; active means well fitted rising curve with a large enough effect; inconclusive means small, poorly fitted or top-dose-only effect; inactive means no such curve, though single readings can be large or run the other way; also: nearly all actives have a fitted effect of over 50% in size
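Growth recovery, yeast-based: influenza A NS1 expressed in S. cerevisiae causes slow growth, and suppressors are detected by OD600. The parent strain without NS1 is used as positive control.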
LASV entry inh: Lassa virus entry inhibition; Lassa virus pseudotype entry inhibition, cell reporter; control for the full effect not named in the record; 300,000 compounds, 1.2% hits; Potency, µM (top dose mostly 37.9 µM), for the others: at the highest dose activity change, negative = inhibition, usual class: inhibitors; AID 540256; active means well fitted inhibition curve with a large enough effect; inconclusive means small, poorly fitted or top-dose-only effect, or effect the other way; inactive means flat fitted curve, though single readings scatter; tested in HEK293 cells; also: % is scaled to controls: 0 for no effect and ±100 for the full control effect; nearly all actives have a fitted effect of over 50% in size; luciferase read-out
Cruzain inh Det: inhibitors of Trypanosoma cruzi cruzain with detergent; P25779; purified cruzain, Z-FR-AMC fluorescence, 0.01% Triton; 200,000 compounds, 0.43% hits; Potency, µM, inactives show max response, negative = inhibition, most hits filed as inhibitors;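 also: plate controls were neutral wells for no effect and buffer without enzyme for full effect; nearly all actives have a fitted effect of over 40% in size; top concentration of the series not given in the record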
Target sequence (P25779 123-467 limits assumed): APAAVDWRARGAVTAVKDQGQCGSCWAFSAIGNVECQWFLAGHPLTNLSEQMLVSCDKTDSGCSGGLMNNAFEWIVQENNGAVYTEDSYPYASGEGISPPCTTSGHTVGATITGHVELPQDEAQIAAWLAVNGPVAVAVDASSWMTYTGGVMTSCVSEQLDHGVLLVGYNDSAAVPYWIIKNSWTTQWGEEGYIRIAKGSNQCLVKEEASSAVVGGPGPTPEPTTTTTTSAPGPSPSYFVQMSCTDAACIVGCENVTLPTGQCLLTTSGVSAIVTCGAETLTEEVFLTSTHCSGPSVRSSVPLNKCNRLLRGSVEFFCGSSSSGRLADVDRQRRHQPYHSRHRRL
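15 min RT preincubation of 1.5 nM cruzain with compound, then 2 uM Z-FR-AMC added; kinetic AMC fluorescence, 60 s delta. Triton X-100 0.01%, pH 5.5.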
Cruzain inh noDet: blocks cruzain activity in detergent-free assay; P25779; Potency, µM, for inactives: max response, negative = inhibition, usual class: inhibitors; purified cruzain, Z-FR-AMC fluorescence, no detergent; 200,000 compounds, 2.3% hits; AID 1476;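 also: plate controls were enzyme without inhibitor for no effect and buffer without enzyme for full effect; nearly all actives have a fitted effect of over 40% in size; top concentration of the series not given in the record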
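Purified cruzain at 1.5 nM, pre-incubated 15 min with compound at room temperature in 100 mM sodium acetate pH 5.5, 5 mM DTT, 0.00005% Triton X-100. Reaction started with 2 uM Z-FR-AMC; AMC fluorescence increase over 60 s gives rate.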
MARV entry inh: blocks Marburg virus binding to or entry into cells | AID 540276 | 300,000 compounds, 1.8% hits | Potency, µM (highest dose often 37.8 µM), inactives show at the highest dose activity change, negative = inhibition, actives largely listed as inhibitors | Marburg virus pseudotyped entry inhibition, cell reporter; control for the full effect not named in the record; about a third of the inactives were read at about 46 µM; active = well fitted inhibition curve with a large enough effect; inconclusive = small, poorly fitted or top-dose-only effect, or effect the other way; inactive = flat fitted curve, though single readings scatter; tested in HEK293 cells; about a fifth of its hits are not listed in these tables; also: % is scaled to controls: 0 for no effect and ±100 for the full control effect; luciferase read-out
StopGo reporter: FMDV 2A StopGo reporter, luciferase signal; 410,000 compounds, 1.2% hits; human cells with a luciferase reporter of 2A StopGo recoding; control for the full effect not named in the record; Potency, µM (titrated, usually from 57.9 µM), for the others: at the top dose signal change, negative = less light; active = well fitted falling curve with a large enough effect; inconclusive = small, poorly fitted or top-dose-only effect; inactive = no such curve, though single readings can be large or run the other way; tested in HEK293T cells; also: % is scaled to controls: 0 for no effect and ±100 for the full control effect; nearly all actives have a fitted effect of over 45% in size; luciferase light after 4 h
* hit, by the source's call; ? = inconclusive; nt = not tested or not shown; & = joins results of further samples; [ ] = dose if it differs, or a comment. Unless noted, calls follow the shape of the dose curve; as a rule, active = well fitted curve in the direction sought with a large enough effect; inconclusive = small, poorly fitted or top-dose-only effect, or another doubt; inactive = no such curve, though single readings can be large; an effect the other way counts as inactive or inconclusive. Potency is read from the fitted curve at half-maximal effect.

The line under a structure holds: SARS PLP yeast	StopGo reporter	LASV entry inh	Cruzain inh Det	NS1 function inh	Cruzain inh noDet	MARV entry inh	RE007 growth inh
> C[C@]12CC[C@H](OS(=O)(=O)O)CC1=CCC1C2CC[C@]2(C)C(=O)CC[C@@H]12 (stereo partly drawn)
    nt	nt	nt	-3.5%	-2%	13%	?	nt
> COc1ccc(OCCSc2nc(-c3ccccc3)cc(=O)[nH]2)cc1
    1%	-16%	12%[46.1 µM]	nt	nt	nt	-1%[46.1 µM]	-1%
> CCNc1oc(-c2cccc3ccccc23)nc1C#N
    nt	33%[activator]	0%	2.8%	-1%	11%	8%	17%
> COc1cccc(-n2c(C)cc(/C=C3/C(=N)N4C(=NC3=O)SN=C4S(C)(=O)=O)c2C)c1
    -4%	43%[activator]	4%	nt	nt	nt	-16%[46.1 µM]	11%
> COc1ccccc1NC(=O)CSc1nnc2ccc(-c3cccnc3)nn12
    -1%	-6%	2%	nt	nt	nt	-1%	-15%
> COc1ccccc1-c1noc(CSc2nnc(Cc3ccccc3)n2-c2ccc(C)c(C)c2)n1
    nt	0%	-21%[46.1 µM]	-12%	nt	10%	4%[46.1 µM]	nt
> Cc1cc(C)cc(OCC(=O)N2Cc3ccccc3CC2C(=O)O)c1 (stereo not drawn)
    -9%	8%	-9%	nt	1%	nt	7%[46.1 µM]	8%
> Cn1c(=O)oc2cc(S(=O)(=O)CCC(=O)N3CCN(c4ccccc4F)CC3)ccc21
    -1%	-14%&-26%	-1%&15%[46.1 µM]	-1.2%	-2%	-3%	-7%&-7%[46.1 µM]	-2%
> O=c1c(Cl)c(NCc2ccccc2)cnn1C12CC3CC(CC(C3)C1)C2
    -12%	38%[activator]	?	-3.8%	11%	-12%	?	0%
> CCOc1ccc(OCC)c(NC(=O)CN2CCN(c3ccc(C)cc3C)CC2)c1
    -37%	?	?	-4.0%	-34%	-18%	4%[46.1 µM]	13%
> COc1ccccc1NC(=O)COC(=O)c1ccc(S(=O)(=O)NCc2ccco2)cc1
    -6%	-8%	5%	-2.7%	4%	-8%	6%[46.1 µM]	-27%
> COc1cc(-c2n[nH]c(=S)n2/N=C/c2cccn2C)cc(OC)c1OC
    1%	2%	-24%	nt	4%	nt	-4%[46.1 µM]	9%
> COc1ccc(-n2nc(C(=O)NCC(=O)Nc3cccc(C)n3)c3ccccc3c2=O)cc1
    6%	-16%	-12%	-12%	1%	-8%	?	13%
> CCc1ccc(N2CN(CCc3ccccc3)CNC2=S)cc1
    0%	-9%	nt	nt	-4%	nt	nt	-3%
> CC(C)N(Cc1nccn1C)C(=O)CC1C(=O)NCCN1Cc1ccccc1C(F)(F)F (stereo not drawn)
    -4%	-6%	12%	nt	3%	nt	21%[46.1 µM]	7%
> Nc1nc(N)c2cnnn2n1
    nt	-11%	19%[46.1 µM]	nt	nt	nt	-3%[46.1 µM]	4%
> O=C(c1ccc(OC2CCN(C/C=C/c3ccccc3)CC2)cc1)N1CCCC1
    4%	-8%	-25%	nt	-4%	nt	?	0%
> Cc1csc(CN(C)C(=O)CC2C(=O)NCCN2Cc2ccc(F)cc2Cl)n1 (stereo not drawn)
    2%	-9%	nt	nt	7%	nt	nt	-6%
> O=C(c1ccc(Cl)cc1)[C@@H]1[C@@H]2C(=O)N(c3ccccc3)C(=O)[C@@H]2C2c3ccccc3C=NN21 (stereo partly drawn)
    -8%	0%	10%	-2.5%	?	?	25%	11%
> Cc1cccc(NC(=S)NC2CCCC2)c1C
    ?	-11%	nt	nt	-14%	nt	nt	5%
> Cc1cccc(NS(=O)(=O)c2ccc3[nH]c(=O)cc(C(=O)O)c3c2)c1
    0%	24%	nt	nt	-3%	nt	nt	0%
> Cc1onc(-c2ccccc2)c1C(=O)Nc1ccc(Br)cc1Cl
    1%	-16%	0%	nt	3%	nt	9%	1%
> CCOc1ccc(NC(=O)Cn2c(=O)n(Cc3ccc(C(=O)NCc4ccc(C)cc4)cc3)c(=O)c3ccccc32)cc1
    nt	3%	30%[46.1 µM]	-1.8%	nt	-14%	-2%[46.1 µM]	nt
> Cc1cc(C)nc(SC2CCCCC2NS(=O)(=O)c2ccccc2)n1 (stereo not drawn)
    5%	10%	2%	-4.5%	-7%	-7%	?	6%
> C=CCn1c(-c2ccccc2)nc(=S)c2c1CC(C)(C)OC2
    12%	-6%	0%	-3.4%	1%	-2%	-7%	-15%[3.69 µM]
> O=C(CCNS(=O)(=O)c1ccc(Br)cc1)NCC1CCCO1 (stereo not drawn)
    -6%	-5%	-1%	nt	nt	nt	14%	24%
> O=[N+]([O-])c1cnccc1Nc1ccccc1
    6%	-13%	10%	0.7%	-4%	-27%	-1%	-9%
> Cc1cccc(-n2c(O)c(C=Nc3ccc(S(N)(=O)=O)cc3)c(=O)[nH]c2=O)c1
    0%	-10%	0%[46.1 µM]	nt	nt	nt	14%[46.1 µM]	-9%
> CCC(=O)Nc1nnc(SCc2cccc(F)c2)s1
    -1%	21%	nt	nt	-6%	nt	nt	9%
> COC(=O)CC(=O)CSc1nc2cc(C(=O)NCC(C)C)ccc2c(=O)n1CCc1ccccc1
    nt	-18%	?	-7.7%	nt	12%	nt	nt
> O=C(NNC(=O)c1cccnc1Cl)c1ccc(F)cc1
    -5%	2%	-2%[46.1 µM]	nt	0%	nt	8%[46.1 µM]	3%
> CC(C)c1ccc(S(=O)(=O)c2nnn3c2nc(NCC2CCCO2)c2ccccc23)cc1 (stereo not drawn)
    -2%	6%	nt	nt	12%	nt	nt	6%
> COc1cccc(/C(O)=C2/C(=O)C(=O)N(c3ccccn3)C2c2ccc(OC)c(OC)c2)c1 (stereo not drawn)
    -25%	10%	2%	-1.9%	-1%	-3%	?	7%
> CC1(C)CC(=O)C=C(NCCN2CCN(C(=O)Nc3ccc(Cl)c(Cl)c3)CC2)C1
    -4%	?	-10%	3.4%	-129%	-7%	-6%	-5%
> CCOc1cc(/C=C2\CCC/C(=C\c3cc(Cl)c(O)c(OCC)c3)C2=O)cc(Cl)c1O
    -17%	16µM*	8.9µM*	6.4%	-7%	13µM*	11µM*	-6%
> Cc1ccc(C)c(S(=O)(=O)N2CCN(C(C)C(=O)Nc3ccccc3-c3ccccc3)CC2)c1 (stereo not drawn)
    -13%	-26%	?	0.7%	21%	-15%	?	9%
> Cc1c(C(=O)N2CC(C)OC(C)C2)oc2ccccc12 (stereo not drawn)
    -6%	24%	20%[14.3 µM]	2.4%	-8%	0%	2%	6%
> CC(C)CNS(=O)(=O)c1ccc(CCC(=O)NCc2cccnc2)cc1
    0%	31%[activator]	0%	3.4%	0%	-4%	7%	3%
> CCCCC(=O)Nc1ccc(C(=O)OC2CCCCC2)cc1
    -21%	-16%	?	-8.2%	-68%	4%	-9%[46.1 µM]	-8%
> CNC(=O)c1cc2cc(OC)ccc2n1CCN(C)C
    3%	3%	-3%	-1.3%	3.5µM*	3%	-9%	1%
> O=C(NC1CC2CCC(C1)N2C(=O)NCc1ccccc1)C1CC1 (stereo not drawn)
    2%	13%	11%	0.2%	-1%	3%	3%	25%
> O=c1c(-c2ccccc2)c(O)c2ccccc2n1-c1ccccc1
    1%	-5%	11%	nt	-3%	nt	9%	0%
> COc1ccc(C(CNC(=O)c2cc(S(=O)(=O)NCc3ccccc3)ccc2C)N2CCOCC2)cc1 (stereo not drawn)
    1%	-1%	7%	nt	nt	nt	-6%[46.1 µM]	-21%
> CCN(CC)C1Oc2cc3c(cc2C(c2cc(OC)c(OC)c(OC)c2)C1C)OCO3 (stereo not drawn)
    nt	-17%	?	nt	nt	nt	?	-14%
> Cc1cc(-c2cc(C)c(N)c(C)c2)cc(C)c1N
    nt	-27%	nt	-2.6%	nt	-3%	nt	-9%
> CN(C(=O)Oc1ccc([N+](=O)[O-])cc1)c1ccccc1
    -12%	6%	-19%	-4.8%	3%	-2%	?	-5%
> CCOc1cccc(C(=O)Nc2cccc(C(C)=O)c2)c1
    -3%	19%	8%	-0.5%	-6%	0%	5%	-10%
> Cc1nc(-c2cc(-c3nc(-c4ccc(C(C)(C)C)cc4)no3)no2)cs1
    1%	14%	?	nt	-1%	nt	?	3%
> O=C1NC(=O)C(Cc2ccccc2)(Cc2ccccc2)C(=O)N1Cc1ccccc1
    nt	?	?	nt	nt	nt	?	0%
> CC(=O)N1CCC(C(=O)Nc2ccc(S(=O)(=O)NCCc3ccccc3)cc2)CC1
    -8%	41%[activator]	11%	nt	-6%	nt	-2%	19%
> COc1cc(OC)c(/C=N/NC(=O)c2ccc(Cn3nc([N+](=O)[O-])cc3C)cc2)c(OC)c1
    0%	-5%	nt	nt	0%	nt	nt	12%
> Cc1ccc(Cl)cc1NC(=O)c1ccc2nc(CCc3ccccc3)oc2c1
    nt	-16%	5%[46.1 µM]	-2.5%	nt	2%	nt	nt
> Cc1cccc(C)c1NC(=O)CSc1nnc(C)c(=O)[nH]1
    -3%	-11%	28%[46.1 µM]	nt	nt	nt	16%[46.1 µM]	2%
> O=C(Nc1nnc(S(=O)(=O)N2CCCCCC2)s1)c1cccc(Br)c1
    2%	-19%&-14%	-7%[46.1 µM]	-1.7%	-1%	6%	nt	-10%
> CCCCN(C(=O)C(C)Oc1cccc(Cl)c1)c1c(N)n(CCC)c(=O)[nH]c1=O (stereo not drawn)
    1%	-17%	4%[46.1 µM]	nt	nt	nt	5%	32%
> C=CCNC(=O)CN(c1cccc(Br)c1)S(C)(=O)=O
    0%	-9%	-1%	1.6%	3%	-12%	3%	12%
> COc1ccc(C(=O)NCCN2CCOCC2)c(OC)c1
    1%	8%	-9%	nt	nt	nt	nt	1%
> Cc1ccc(C)c(N2CCN(C(c3ccncc3)c3nnnn3Cc3ccccc3)CC2)c1 (stereo not drawn)
    -8%	nt	?	-0.2%	-82%	-8%	?	-3%
